# Screens (PubChem BioAssay)
# BasE inh – inhibitors of Acinetobacter baumannii siderophore enzyme BasE; AID 485350; purified BasE, fluorescence polarization binding displacement; inhibition, % (no concentration beside the values); 0.1% of 84,000 active;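 active = both replicates above 25% with normal brightness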;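 also: 0% = negative plate control signal and 100% = positive plate control signal; stock transfer was 100 nL into about 30 µL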
# KSHV LANA nucl – LANA-nucleosome interaction inhibition; FITC-LANA1-23 / chicken nucleosome fluorescence polarization; hits give low values; z-score (no concentration beside the values); 0.3% of 51,000 active;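 active = both repeat wells score below -2 in polarization z-score versus plate sample wells, excluding overly bright wells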;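 also: 100 nL library stock added to about 30 µL; numbers are from one replicate; some results filed as inactive read as strong as hits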
#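 Assay system: FITC-LANA peptide and chicken nucleosomes; input: 240 nM purified chicken nucleosomes (480 nM peptide binding sites), final; also added: 50 nM FITC-LANA1-23 probe; medium: TEN-BT buffer, pH 7.5; doses: pin-transferred compound, 100 nL; times: 10–45 min, room temperature; technique: fluorescence polarization; replication: duplicates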
# * marks the source's active call; other numbers are inactive results; / = no result given. Not all compounds are listed. The share of hits here may be higher or lower than overall.
# Values in the order – BasE inh	KSHV LANA nucl
CC1Cc2ccccc2N1C(=O)COc1ccc2c(c1)OCO2 (configuration not stated)
→ 2.9	/
CC(C)(C)NC(=O)Oc1ccc(Cl)cc1
→ -0.1	/
N#CC1=C(N)Oc2n[nH]c(CSc3ccccc3)c2C1Cc1ccccc1 (configuration not stated)
→ 0.1	-0.69
CC(=O)Nc1ccc(C2C3=C(CCCC3=O)Nc3c2c(C)nn3-c2nc3ccccc3s2)cc1 (configuration not stated)
→ -2.2	/
CC(OC(=O)CN1C(=O)COc2ccccc21)C(=O)NCc1cccs1 (configuration not stated)
→ 0.3	0.34
CCCC(=O)Nc1ncnc2c1ncn2C1O[C@H]2COP(=O)(O)O[C@@H]2[C@@H]1OC(=O)CCC (some centres not stated)
→ -3.9	0.058
CC1(C)CC(N=Cc2c(O)[nH]c(=O)[nH]c2=O)CC(C)(C)N1
→ -2.1	-0.064
CC(C)Cn1c(NC(=O)Nc2ccccc2F)c2ccccc2nc1=O
→ 1.4	-1.6
NC(=S)c1cc(-c2ccccc2)c(C(F)(F)F)s1
→ 2.3	/
Cc1nn(-c2ccccc2)c(C)c1NC(=O)COC(=O)c1ccccc1
→ 1.3	/
CN1c2ccsc2C(=O)/C(=C\N=S(C)(=O)c2ccc(Cl)cc2)S1(=O)=O (configuration not stated)
→ 1.5	-0.17
COc1cc(C=Nc2cc(Cl)ccc2O)ccc1O
→ 3.4	-0.2
O=S(=O)(c1ccc(-c2cnco2)cc1)N1CCCC1c1ccc(F)cc1 (configuration not stated)
→ /	-1
CCOc1ccc(O)c(C=NC2CCCC2)c1
→ 0.0	/
C=CCNc1nc2ccccn2c(=O)c1/C=C1\SC(=S)N(C)C1=O
→ -18	2.1
COc1cccc(-c2nn(C)c3sc(C(=O)NCC4COc5ccccc5O4)cc23)c1 (configuration not stated)
→ 2.4	-0.27
Cc1ccn2cc(C(=O)O)nc2c1
→ /	-1.4
CCOC(=O)c1ccc(Nc2ncnc3ccccc23)cc1
→ -0.8	/
CC(C)C[C@H]1C(=O)N2CCC[C@H]2[C@]2(O)O[C@](NC(=O)[C@@H]3C=C4c5cccc6[nH]c(Br)c(c56)C[C@H]4N(C)C3)(C(C)C)C(=O)N12
→ -0.9	0.36
O=C(CSc1nnc2[nH]c(=O)ccn12)N1CCc2ccccc21
→ 1.1	0.3

# Structures above containing four or more nitrogen atoms:
# Values in the order – BasE inh	KSHV LANA nucl
N#CC1=C(N)Oc2n[nH]c(CSc3ccccc3)c2C1Cc1ccccc1 (configuration not stated)
→ 0.1	-0.69
CC(=O)Nc1ccc(C2C3=C(CCCC3=O)Nc3c2c(C)nn3-c2nc3ccccc3s2)cc1 (configuration not stated)
→ -2.2	/
CCCC(=O)Nc1ncnc2c1ncn2C1O[C@H]2COP(=O)(O)O[C@@H]2[C@@H]1OC(=O)CCC (some centres not stated)
→ -3.9	0.058
CC1(C)CC(N=Cc2c(O)[nH]c(=O)[nH]c2=O)CC(C)(C)N1
→ -2.1	-0.064
CC(C)Cn1c(NC(=O)Nc2ccccc2F)c2ccccc2nc1=O
→ 1.4	-1.6
C=CCNc1nc2ccccn2c(=O)c1/C=C1\SC(=S)N(C)C1=O
→ -18	2.1
CC(C)C[C@H]1C(=O)N2CCC[C@H]2[C@]2(O)O[C@](NC(=O)[C@@H]3C=C4c5cccc6[nH]c(Br)c(c56)C[C@H]4N(C)C3)(C(C)C)C(=O)N12
→ -0.9	0.36
O=C(CSc1nnc2[nH]c(=O)ccn12)N1CCc2ccccc21
→ 1.1	0.3

# The listing continues:
# Values in the order – BasE inh	KSHV LANA nucl
COC(=O)c1cc(=O)[nH]c(=S)[nH]1
→ 0.4	/
Cn1c(SCc2ccccc2)nnc1C1CCN(C(=O)c2ccc3c(c2)OCO3)CC1
→ 0.9	-1.1
CC(OC(=O)c1cc(S(=O)(=O)N(C)C)ccc1N1CCCC1)C(=O)N1CCc2ccccc21 (configuration not stated)
→ -2.2	/
O=c1c2nccnc2nc(SCc2ccc(F)cc2)n1Cc1ccccc1
→ 2.1	0.79
Cc1n(CC(=O)c2ccc(F)cc2)c2ccccc2[n+]1C
→ 0.6	/
CN=C1SC(C(=O)Nc2ccc(C)cc2Br)C(N)=C1C(=O)NCCN1CCOCC1 (configuration not stated)
→ -0.1	/
O=C(/C=C1\SC(=O)N(CN2CCCCC2)C1=O)Nc1ccccc1
→ 5.4	0.35
C#CCNc1cc(-c2ccccc2)nc2nncn12
→ 0.9	0.055
CCN(CC)c1ccc(NC(=O)CN2CCN(CC(=O)Nc3ccc(Br)cc3)CC2)cc1
→ 0.3	-0.15
CN=C(Nc1ccc(F)cc1)c1ccccc1
→ 4.6	/
Cc1nn(CCC#N)cc1C=C1C(=O)NC(=O)NC1=O
→ 1.2	/
CC1=NN(c2ccccc2)C(=O)/C1=C\N1CCC(C)CC1
→ 3.6	-0.025
Cc1cc(CN2CCOCC2)c(O)c(C2(C)CCCCC2)c1
→ 1.2	-0.53
COc1ccc(NCc2ccc(OCC(N)=O)c(Cl)c2)cc1
→ -1.2	1
CC(C)c1ccc2c(ccc[n+]2C)c1
→ 0.9	/
NC(=O)COc1ccc(Cl)cc1
→ 0.0	/
CCc1nc2ccccc2c(C)c1C(=O)O
→ -1.2	/
O=C(COC(=O)c1ccc(Br)cc1)c1ccc(Br)cc1
→ 1.4	/
COc1ccc(OC)c(NC(=O)Cn2cnc3c(nnn3Cc3ccc(F)cc3)c2=O)c1
→ -1.3	-1.2
COc1cccc(/C=N/c2c(-c3ccccc3)c(C(F)(F)F)nn2C)c1OC
→ 4.6	/
Cc1nc(C)c(/C(O)=C/c2nc3cc(Cl)ccc3oc2=O)o1
→ -7.0	/
CN1CCN(c2ccc(NC(=O)Nc3ccc(C(F)(F)F)cc3)cc2)CC1
→ -0.6	1.9
CC(O)CNc1ccc(C(F)(F)F)cn1 (configuration not stated)
→ -1.1	-0.017
CCOC(=O)c1ccc(N2C(=N)S/C(=C\c3cnn(-c4ccccc4)c3)C2=O)cc1
→ 2.4	-1
O=C(O)CC1c2ccccc2CCN1S(=O)(=O)c1ccccc1 (configuration not stated)
→ 4.1	/
Nc1cccc(-c2csc(N)n2)c1
→ 3.3	0.15
CC1(C(=O)O)CCC(c2nc(N)n[nH]2)C1(C)C (configuration not stated)
→ 2.2	0.055
CCCc1cc(=O)[nH]c(SCC(=O)c2cc(C)n(C)c2C)n1
→ -0.7	/
CNC(=O)COc1ccc(S(=O)(=O)N2CCOCC2)cc1C
→ -3.0	0.34
CCN1C(=O)C(=Cc2ccc(OC(F)F)cc2)C(=O)N(CC)C1=S
→ 1.5	/
COc1cccc(C(=O)Nc2cccc3c2C(=O)NC3=O)c1OC
→ 3.0	/
CCC1=NN(C(=O)C(C)C)C(O)(C(F)(F)F)C1 (configuration not stated)
→ 0.2	-0.46
CCOc1cc(CNCC(c2ccc(OC)cc2)N2CCCCC2)ccc1OC(C)C(=O)N(C)C (configuration not stated)
→ -1.8	/
Cc1oc(-c2ccc(C(=O)NCc3ccco3)cc2)nc1COc1ccccc1
→ 0.5	-0.85
O=C1NNC(=S)Nc2ccccc21
→ -0.7	0.007
Cc1ccc(S(=O)(=O)N(Cc2ccccc2)CC(C)C(=O)O)cc1 (configuration not stated)
→ 0.3	1.2
COC(=O)C1CC2C=CC1C2 (configuration not stated)
→ 1.2	/
CCn1c(SCC(=O)O)nnc1-c1cccs1
→ 1.0	/
CO[C@H]1O[C@H](COC(C)=O)[C@@H](OC(C)=O)[C@H](OC(C)=O)[C@H]1OC(C)=O
→ 2.3	0.15
COc1ccc(-c2nnc(SCc3c(Cl)cccc3Cl)o2)cc1
→ 1.2	-0.24
CC(=O)Nc1ccc(-c2cn(CC(=O)NN)cn2)cc1
→ -3.3	1.6
CCS(=O)(=O)c1ccc2oc(SCC(=O)N3c4ccccc4CC3C)nc2c1 (configuration not stated)
→ 1.1	/
CCN1CCN(C(=O)C2CCN(Cc3cc(Cl)ccc3O)CC2)CC1
→ -2.2	0.059
Cn1c(=O)c2[nH]c(=S)[nH]c2n(C)c1=O
→ -0.7	0.27
COc1ccc(CC(=O)NC(C)c2nnc(SCC(=O)Nc3cc(C)ccc3OC)n2C)cc1 (configuration not stated)
→ 0.5	-1.1
Cc1cc(=O)oc2c1C(=O)CC(C)(C)C2
→ 3.5	-0.065
CC(C)N(CC(N)=O)C(=O)Cc1coc2cc3c(cc12)CCC3
→ -0.8	/
COc1cccc(OC)c1C(=O)NN
→ -1.1	/
COc1cc(C2Nc3cccc4cccc(c34)N2)cc(I)c1O
→ -17	-0.042
O=S(=O)(Nc1ccc(N2CCN(c3ncccc3C(F)(F)F)CC2)nc1)c1ccc(Cl)cc1
→ 3.6	-1.1
Cc1c(C(=O)Oc2ccc(Cl)cc2)n(C)oc1=O
→ 2.6	/
COc1ccccc1-n1ccnc(SCC(=O)NC2CCCCC2)c1=O
→ -0.2	-1.3
CC(=O)OCc1ccc(C(=O)Nc2nccs2)cc1
→ 0.5	/
CC(C)OC(NC(=O)c1ccccc1)(C(F)(F)F)C(F)(F)F
→ 1.7	-0.26
CC1(C)Oc2ccc3ccc(=O)oc3c2/C(=C/N2CCCCC2)C1=O
→ -2.9	0.5
Cc1ccc(NC(=O)COc2cn(-c3ccccc3)nn2)cc1C
→ -1.1	/
O=C(Nc1cc(Cl)ccc1N1CCCC1)c1cccc(S(=O)(=O)N2CCCC2)c1
→ 1.6	/
Cc1nc2c(C(=O)NCc3ccccc3Cl)c[nH]n2c(=O)c1Cl
→ 11	0.34
C=CCN1C(=O)/C(=C2/SC(C)=C(C)N2CC)SC1=Nc1c(C)n[nH]c1C
→ 0.9	-0.89
O=C(CNC(=O)c1ccccc1F)OC1CCOC1=O (configuration not stated)
→ 4.4	/

# More results.
# Values in the order – BasE inh	KSHV LANA nucl
Cc1[nH]c(C)c(S(=O)(=O)N2CCCc3ccccc32)c1C(=O)N1CCCC1
→ 1.2	0.35
CC(=C/C(=O)O)/C=C/c1ccccc1
→ 0.8	/
CC(=NCCCn1ccnc1)c1c(C(F)(F)F)[nH]n(-c2nc3ccccc3s2)c1=O
→ -6.2	-1.1
O=C(COC(=O)C1CCCN(C(=O)c2ccc(Cl)cc2)C1)c1ccc2c(c1)OCO2 (configuration not stated)
→ 0.2	/
COC(=O)c1ccc(N2CCc3ccccc32)s1
→ 1.3	0.5
CN1CCN(C(=O)CNC(=O)c2ccc(-c3ccccc3)cc2)CC1
→ 1.2	/
CCOC(=O)CC1NC(=O)c2ccccc21 (configuration not stated)
→ 1.5	0.16
CC(NC(=O)NC1CCCCC1)c1ccc2c(c1)OCO2 (configuration not stated)
→ 1.6	-0.56
CC(C(=O)Nc1nc2ccc(S(=O)(=O)N3CCOCC3)cc2s1)N1C(=O)c2ccccc2C1=O (configuration not stated)
→ 1.8	-1.3
CCOC(=O)c1c(-c2ccccc2)csc1/N=C/c1nc(-c2ccco2)oc1O
→ -2.6	0.3
CCOc1ccc(OCCNCc2cn(CCC#N)nc2-c2ccccc2)cc1
→ -4.6	/
O=C(Nc1nnc(C2CC2)s1)Nc1ccccc1C(=O)Nc1nnc(C2CC2)s1
→ -1.6	/
CCN(CC)c1nc2c(c(=O)n(Cc3ccccc3)c(=O)n2C)n1Cc1ccccc1
→ -1.8	-0.051
COc1ccc(CNC(=O)CSC(C)(C)C)cc1OC
→ 0.4	/
COC(=O)C1=C(C)OC(N)=C(C#N)C1c1c(C)nn(-c2ccccc2)c1Cl (configuration not stated)
→ -3.7	0.69
Clc1ccc(-c2nnc3n2-c2ccccc2SC3)cc1
→ -0.3	-0.072
Cc1ccn(CCC(=O)N(C)Cc2ccco2)n1
→ 2.2	-0.98
COc1ccc(C2=CSC3=NS(=O)(=O)CCN23)cc1OC
→ 1.8	/
Nc1ccc(C(=O)O)c(O)c1 (tested in a mixture with another compound)
→ 2.9	-0.93
CCS(=O)(=O)c1ncc(CO)n1CCc1ccccc1
→ 1.9	0.28
O=C(CC(=O)N1CCc2ccccc21)N1CCc2ccccc21
→ /	0.3
CCNc1nc(NCC)n2c(SCC(=O)NC3=C(C(=O)OCC)C4CCCC4S3)nnc2n1 (configuration not stated)
→ -1.2	1.7
COC(=O)c1cc(CNCC2(N3CCCCC3)CCCCC2)oc1C
→ 0.2	/
CN(Cc1ccccc1)C(=O)c1cccc(F)c1
→ -0.2	/
CCN(C(=O)CSc1nc(C)cc(COC)c1C#N)c1ccccc1
→ 2.5	0.09
Cn1c2ccccc2c2c3c(c4c5ccccc5n(CCC#N)c4c21)CNC3=O
→ -4.2	0.32
O=C1/C(=N\O)CCc2c1no[n+]2[O-]
→ -0.5	-1.2
CSCCC(N)c1nc2ccccc2[nH]1 (configuration not stated)
→ -2.3	/
Cc1ccc(S(=O)(=O)N2CCC[C@H]2C(=O)OCc2c(C)noc2C)cc1
→ -0.3	/
COc1c(O)cccc1-c1nnn(CCC(=O)OCC(=O)c2ccccc2)n1
→ -1.4	0.11
CC1(C)CCCC2=C1CC1C(=O)N(O)C(=O)C1C2 (configuration not stated)
→ -1.8	-0.76
Cn1c(-c2ccccc2)c(C(=O)CN2CCOCC2)c2ccccc21
→ -0.3	/
CC(C(=O)OCC(=O)c1ccc2c(c1)OCCO2)N1C(=O)c2ccccc2C1=O (configuration not stated)
→ 1.1	/
CCN(C(=O)CSc1nnc(C(F)(F)F)n1C)C1=CCCC1
→ 0.9	/
COC(=O)c1sc(C(C)(C)C)cc1NC(=O)Nc1ccc(Cl)cc1
→ 5.4	/
CCOc1ccc2ccc(=O)oc2c1
→ 2.3	/
COc1ccc(C(=O)N2C(=O)c3ccc(N)cc3C2=O)cc1
→ 1.6	/
Cc1ccc(S(=O)(=O)N(C2CCCC2)S(=O)(=O)c2ccc(Br)s2)cc1C
→ 1.3	/
Cc1cc(C)c(S(=O)(=O)Nc2cc3c4c(oc3c3ccccc23)CCCC4=O)cc1C
→ 1.5	/
Cc1cc(C)nc(SCC(=O)NC2=NN=C(c3ccccc3)CS2)n1
→ -0.6	-0.69
